# KSHV LANA nucl: LANA-nucleosome interaction inhibition; FITC-LANA1-23 / chicken nucleosome fluorescence polarization; active compounds read low; z-score (concentration not given with the values); 51,000 compounds, 0.3% hits; AID 720717;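 active means both repeat wells score below -2 in polarization z-score versus plate sample wells, excluding overly bright wells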;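 further: 100 nL library stock added to about 30 µL; numbers are from one replicate; some results filed as inactive read as strong as hits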
#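 Assay system: purified chicken nucleosomes with FITC-labelled LANA N-terminal peptide (1-23) / Probe or stimulus: 50 nM FITC-LANA1-23 probe / Compound dosing: pin-transferred compound, 100 nL / Times: compound with peptide–nucleosome mix 10–45 min at room temperature / Technique: fluorescence polarization, 480 nm excitation, 535 nm parallel and perpendicular emission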
# Ab BasE inh: BasE siderophore biosynthesis inhibition; purified BasE, fluorescence polarization binding displacement; inhibition, % (concentration not given with the values); 84,000 compounds, 0.1% hits;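 active means both replicates above 25% with normal brightness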;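 further: 0% = negative plate control signal and 100% = positive plate control signal; stock transfer was 100 nL into about 30 µL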
# Numbers without * were called inactive; . = no result given; & = joins results of further samples.
no.	Molecule	KSHV LANA nucl	Ab BasE inh
1	CN(C(=O)CN1CCc2ccccc2C1)c1c(N)n(Cc2ccccc2)c(=O)[nH]c1=O	.	0.7
2	O=C(Nc1ccc2c(c1)CCC2)C1CCCO1 (configuration not stated)	-2.09*	1.2
3	O=C(CSc1nc2ccccc2o1)NC1CC1	0.764	-0.1
4	CC(C)(C)c1cc(O)c(O)c(Br)c1	0.0145	1.9
5	Cc1cccc(N2CCN(C(=O)CCCN3C(=O)COc4ccc(C)cc43)CC2C)c1 (configuration not stated)	1.29	-2.0
6	O=C(Cc1cccs1)NCCCc1ccccc1	0.0385	-0.9
7	S=c1[nH]c2c(Cl)cc(Cl)cc2o1	0.303	3.4
8	CCCCn1c(SCCO)nc2c(c1=O)C1(CCCC1)Cc1ccccc1-2	-0.71	0.7
9	Cc1ccc(-n2nc3c4nonc4ccc3[n+]2[O-])cc1	-0.625	2.0
10	O=C1CNC(=O)C2(c3ccccc3)CCCN12 (configuration not stated)	1.7	-1.9
11	Nc1ccc2nc(SCC(=O)c3ccccc3)sc2c1	0.807	-3.4
12	CCOC(=O)c1[nH]c(COC(=O)C(NS(=O)(=O)c2ccc(Cl)cc2)C(C)O)c(C(=O)OCC)c1C (configuration not stated)	.	1.7
13	CS(=O)c1ccc(-c2nc(-c3ccc(F)cc3)c(-c3ccncc3)[nH]2)cc1 (configuration not stated)	0.281	-2.5
14	c1ccc2c(c1)OCC(c1nn3cnnc3s1)O2 (configuration not stated)	0.617	-0.3
15	Cc1ccc(Sc2ncccc2C(=O)NCc2ccco2)cc1	.	0.3
16	CCN(C(=O)C(C)C)c1ccccc1	-1.11	2.5
17	CCN1C(=O)/C(=C2/Sc3ccc(OC)cc3N2C)SC1=Nc1cccc(O)c1	-0.392	-1.1
18	O=C(Cn1cc(S(=O)(=O)Cc2ccccc2)c2ccccc21)N1CCCC1	-1.51	-0.8
19	COc1ccc(-c2nc(SCC(=O)N3CCC(c4ccccc4)=N3)n[nH]2)cc1	.	1.0
20	C/C(N)=C(/C#N)C(=O)CSCc1ccccc1C	.	-2.9
21	O=c1c(-c2ccccc2)nc(-c2ccccc2)cn1O	0.943	.
22	Cc1ccc(C(=O)N(C)Cc2ccccc2)cc1	.	-0.1
23	CC(C)(C)NC[C@H](O)COc1cccc2c1CCCC2=O	-0.302	1.1
24	CCn1cc(C(=O)OCC(=O)OC2CC(C)CCC2C(C)C)c(=O)c2ccc(C)nc21 (configuration not stated)	.	0.9
25	CC(NC(=O)Cn1c(-c2cccs2)cc2ccccc21)c1ccccc1 (configuration not stated)	-1.57	0.8
26	COC(=O)c1ccc(NC(=O)c2ccc(C)cc2)cc1	-0.009	1.4
27	Cc1nc2c(c(C)nn2C)c(C)c1CCC(=O)NCCc1ccccc1	0.797	-3.4
28	N#C/C(C(=O)N1CCCCC1)=C1/Nc2ccccc2S1	0.796	-0.9
29	O=C(/C=C/c1ccc(OCc2ccccc2)cc1)N1CCOCC1	-0.297	.
30	COc1ccc(NCC(=O)Nc2ccc(F)cc2)cc1	-1.75	0.9
31	CCOc1ccc(S(=O)(=O)N(CC)CC(=O)NCc2cccnc2)cc1C	-0.078	1.3
32	COc1cc(C(=O)NS(=O)(=O)c2ccccc2C)ccc1Cc1cn(C)c2ccc(NC(=O)OC3CCCC3)cc12	-0.256&0.128	.
33	CC(=O)Nc1ccc(OCC(=O)Nc2cc(F)ccc2C)cc1	.	-1.3
34	O=C(Nc1ccc2c(c1)OCCO2)Nc1cccs1	.	0.2
35	NS(=O)(=O)c1ccc(NC(=O)CSCc2ccccc2)cc1	.	2.7
36	CCC(=O)c1c[nH]c(C(=O)NCc2ccco2)c1	-0.776	.
37	Cc1ccc(S(=O)(=O)N2CCCCCC2)cc1C	.	1.9
38	CCOC(=O)N1CCN(C(=O)CC2C(=O)N(Cc3ccccc3)C(C)c3nc4ccccc4n32)CC1 (configuration not stated)	0.679	0.5
39	O=c1oc2ccccc2n1-c1nc2ccccc2o1	0.105	1.8
40	CCOC(=O)c1cc(-c2ccc(C#N)cc2)nc2c1c(C)nn2CCC#N	.	4.0
41	O=C(Nc1ccc2nc(C3CC3)n(Cc3ccccc3)c(=O)c2c1)C1CC1	0.232	1.8
42	COC(=O)C1=C(C)N(c2ccc(OC)c(OC)c2)C(=O)/C1=C\c1cc(C)n(-c2ccc(F)cc2)c1C	.	2.4
43	CCCNC(=O)c1ccc2c(=O)n3nc(Nc4ccccc4CC)sc3nc2c1	-0.966	-0.1
44	CCOC(=O)c1ccc(N=Cc2ccc(O)c(OC)c2)cc1	0.203	1.4
45	CCOC(=O)C1=C(CC)Nc2ccccc2N=C1NC(=O)c1ccc(=O)n(C)n1	.	0.3
46	CCOC(=O)C1(C/C(C)=N/NC(N)=S)CC(C)(C)OC1=O (configuration not stated)	-0.297	0.5
47	O=C(Nc1cccc(Cl)c1)Nc1ccccn1	0.552	1.5
48	O=C(CN(C(=O)c1ccc(Cl)nc1)C1CCCC1)NCc1ccc2c(c1)OCO2	0.287	0.6
49	COc1ccccc1C(C)NCC(=O)Nc1cc(C)on1 (configuration not stated)	.	-2.6
50	Cc1cc(=S)cc(-c2ccccc2)n1CCN1CCOCC1	-0.029	0.1
51	CN(CC(=O)NC1=NCCS1)S(=O)(=O)c1ccc(Cl)cc1	.	-0.8
52	CC1CC1c1ccc(/C=C/C(=O)O)o1 (configuration not stated)	.	1.5
53	CCc1nc2ccccc2c(C(=O)OCC#N)c1C	.	2.0
54	Cc1onc(-c2c(Cl)cccc2Cl)c1NC(=O)NC1CCSC1 (configuration not stated)	.	0.9
55	CCCn1c(SCc2nc(N)nc(Nc3ccccc3C)n2)nnc1-c1ccncc1	.	-3.0
56	COc1cc(OC)cc(-c2nc3ccccc3c(=O)n2OC(=O)c2ccccc2Cl)c1	.	0.6
57	CN(C)S(=O)(=O)c1ccc(C(=O)N2CCCC2c2nc3ccccc3s2)cc1 (configuration not stated)	.	-0.3
58	CSC(N)=Nc1c(Cl)cccc1Cl	.	2.8
59	CN(/N=C/c1cc(Cl)cc(Cl)c1O)C(=S)NC(C)(C)C	.	4.4
60	CN(C)c1ccc(/C=N/NC(=O)Cc2ccccc2)cc1	0.13	-0.6

# The list continues.
no.	Molecule	KSHV LANA nucl	Ab BasE inh
61	Cn1c(=O)n(-c2cccc(Cl)c2)c(=O)n1C	-0.279	2.3
62	O=C(CSc1nnc(-c2ccco2)o1)NCCCN1CCCC1=O	.	1.2
63	FC(F)(F)c1cc(C(F)(F)F)c2c(n1)[nH]c1ccccc12	.	1.8
64	NNC(=O)c1c(-c2ccccc2)c(-c2ccccc2)nn2nnnc12	-0.115	3.6
65	CC(=O)Nc1nc(C(C)(C)C)cs1	.	2.7
66	CCNC(=S)NCc1ccc2[nH]c(C)cc2c1	0.453	2.5
67	O=C(CN1C(=O)c2ccccc2C1=O)OC1CCOC1=O (configuration not stated)	.	0.1
68	C=CCNC(=S)NNc1ccccc1Cl	.	-2.3
69	O=C(CSc1nc2ccccc2c(=O)n1CCCN1CCOCC1)c1ccccc1	.	1.2
70	O=C1CN=C(Nc2cccc(C(F)(F)F)c2)N1C1CCCC1	2.94	-2.6
71	COc1ccc(NC(=O)COC(=O)C2CCCCC2)cc1	.	1.9
72	COCC(C)n1c(SCC(=O)c2ccc[nH]2)nc2ccccc2c1=O (configuration not stated)	.	0.4

# Printed as active in KSHV LANA nucl, of those listed so far:
no.	Structure	KSHV LANA nucl
2	O=C(Nc1ccc2c(c1)CCC2)C1CCCO1 (configuration not stated)	-2.09*

# Further structures
no.	Molecule	KSHV LANA nucl	Ab BasE inh
73	CC(C)N(C(=O)CSc1ccc(Cl)c(Cl)c1)C(C)C	-0.118	.
74	Cc1cccc(C)c1N(C)C(=O)c1cnccc1C(F)(F)F	-0.799	0.4
75	CSc1ccccc1S(=O)(=O)C(C)(C)C	1.13	0.0
76	O=C(O)CN1C(=O)c2ccc(Oc3ccc4c(c3)C(=O)N(CC(=O)O)C4=O)cc2C1=O	-0.051	1.9
77	O=C(CSc1cn[nH]n1)N1CCN(S(=O)(=O)c2ccccc2)C1	-0.722	0.7
78	COc1ccc(CNc2ccc(F)cc2C)c2ccccc12	.	1.5
79	N#C/C(=C\c1ccc(-c2ccc(S(=O)(=O)N3CCOCC3)cc2)o1)S(=O)(=O)c1ccc(Br)cc1	.	3.2
80	Cc1csc2c(N3CCSCC3)ncnc12	.	2.8
81	COc1ccccc1CN1CCN(C(CC(C)C)c2nnnn2Cc2ccc(F)cc2)CC1 (configuration not stated)	-0.111	0.0
82	O=C(NC1CCCC1)c1cnn2c(C(F)F)cc(-c3ccccc3)nc12	0.193	0.7
83	CCN(CC(=O)Nc1cc(Cl)ccc1C)C(=O)C1CCCCC1	.	1.0
84	CC12CCC(c3c(C(=O)O)nn(-c4ccccc4)c31)C2(C)C (configuration not stated)	.	-0.4

# Structural class: the entries above with a cyano group
no.	Molecule	KSHV LANA nucl	Ab BasE inh
20	C/C(N)=C(/C#N)C(=O)CSCc1ccccc1C	.	-2.9
28	N#C/C(C(=O)N1CCCCC1)=C1/Nc2ccccc2S1	0.796	-0.9
40	CCOC(=O)c1cc(-c2ccc(C#N)cc2)nc2c1c(C)nn2CCC#N	.	4.0
53	CCc1nc2ccccc2c(C(=O)OCC#N)c1C	.	2.0
79	N#C/C(=C\c1ccc(-c2ccc(S(=O)(=O)N3CCOCC3)cc2)o1)S(=O)(=O)c1ccc(Br)cc1	.	3.2

# More records follow.
no.	Molecule	KSHV LANA nucl	Ab BasE inh
85	Cc1onc(-c2ccccc2)c1C(=O)NC1CC1	.	1.3
86	CC1=CC(=C(C#N)C#N)c2ccccc2N1C	.	11.6
87	CCOc1ccc(NC(=O)c2ccc(NC(=O)CSc3nnc(C)n3C3CC3)cc2)cc1	.	2.7
88	CCn1c(=N)n(CC(O)c2ccccc2)c2ccccc21 (configuration not stated)	-0.769	-0.6
89	O/N=C/c1ccc(N2CCOCC2)s1	.	-1.9
90	Cc1ccc(C)c(OCCC(=O)Nc2ccc3c(c2)OCO3)c1	.	2.0
91	c1ccc2c(c1)OCC(CNc1ncnc3c1oc1ccccc13)O2 (configuration not stated)	.	0.5
92	COc1cc(/C=N/NC(N)=S)ccc1OCC(=O)N1CCOCC1	2.09	-0.1
93	COC(=O)c1cncc(C(=O)OC)c1	0.561	-0.5
94	COc1ccc(/C=C/C(=O)NC(=O)c2ccccc2OCC(=O)c2ccc(Br)cc2)cc1	.	-0.7
95	O=C(OC(C(=O)NCc1cccs1)c1ccccn1)c1cccs1 (configuration not stated)	-2.04	-1.7
96	CCOc1ccc(CNC(=O)c2cc3oc4ccccc4c3n2CC)cc1	-1.46	1.8
97	O=C(O)c1ccc2c(c1)C(=O)NC2=O	0.0595	-1.9
98	O=C1N(c2cccc(Cl)c2)C(=Nc2cccc(Cl)c2)SC12CC2	.	4.2
99	N#Cc1c(NC(NC(=O)c2ccco2)(C(F)(F)F)C(F)(F)F)sc2c1CCCCC2	0.467	0.2
100	C=CCNC(=O)C1CC(=O)N(c2ccc(OCC(=O)Nc3ccc(F)c(Cl)c3)cc2)C1 (configuration not stated)	-0.614	-0.9
101	Oc1ccccc1C=Nc1ccc(N2CCOCC2)cc1	-0.535	.
102	CC1=CN2C(=O)C(Cc3ccccc3)(NC(=O)c3ccccc3)N=C2C=C1 (configuration not stated)	-0.796	0.7
103	CN1CCN(C(=O)CCc2nc3ccccc3c(=O)[nH]2)CC1	.	-0.1
104	CCCS(=O)(=O)n1nc(-c2ccccc2)cc1N	0.264	1.0
105	O=C1CC(C(=O)O)C2(CCCC2)O1 (configuration not stated)	0.024	-0.2
106	Cc1ccc2c(c1)N(C(=O)c1ccco1)C(C)(C)c1ssc(=S)c1-2	-0.663	-0.2
107	Cc1cc(C)n(CCc2nc(-c3ccc(C)c(C)c3)cs2)n1	.	0.6
108	CCCN(CC(=O)Nc1ccc(F)c(F)c1F)CC(=O)Nc1c(C)n(C)n(-c2ccccc2)c1=O	.	-0.4
109	Cc1cccc(NC(=O)COC(=O)/C=C/c2ccc(C)o2)c1	.	1.4
110	COc1ccc(C(C(=O)NC2CCCC2)N(Cc2ccco2)C(=O)Cn2nc(C(F)(F)F)c3c2CCCC3)cc1 (configuration not stated)	0.078	1.3
111	CCNc1cc(N2CCCCCC2)c2noc3c2c1C(=O)c1ccccc1-3	2.31	-25.6
112	O=c1oc2cc3occ(-c4ccccc4)c3cc2c2c1CCCC2	0.954	0.0
113	Nc1nccnc1C(=O)OCC(=O)N(c1ccccc1)C1CCCCC1	.	1.0
114	CC(C)c1ccc(NC(=O)CN(c2ccnn2C(C)C)S(=O)(=O)c2ccccc2)cc1	.	1.6
115	Cc1ccc(NC(=O)c2cc(C3CC3)[nH]n2)cc1	-1.54	-1.5
116	Cc1cc(C)c2c(n1)sc1c(=O)n(NC(=O)Nc3ccccc3)c(C)nc12	.	-1.5
117	O=C(NCc1nc(-c2ccccc2)no1)c1ccc(-c2ccccc2)cc1	-0.528	2.5
118	Cc1cc2c3c([nH]c2cc1S(=O)(=O)N(CCN1CCOCC1)Cc1ccco1)CCCC3=O	-0.197	2.5
119	CN1C(=O)COc2ccc(N)cc21	0.615	1.6
120	CN1CC2=C(C1=O)C(c1ccccc1)NC(=O)N2 (configuration not stated)	.	-0.5
121	CCN(CC)c1ccc2oc(=O)c(C)nc2c1	.	-2.3
122	COc1ccc(CNC(=O)C2(CC(=O)NC(C)(C)C)CCCC2)cc1	.	0.5
123	Cc1cc(C)c(C#N)c(SCCOc2ccccc2F)n1	.	-4.3
124	CC1CCCCN1CCCNC(=O)c1ccc2c(c1)NC(=O)CS2 (configuration not stated)	0.35	-1.2
125	CCOC(=O)c1cnn(-c2ccccc2)c1NC(=O)c1ccco1	-1.63	0.8
126	N#Cc1c(NC(=O)C2CCCO2)sc2c1CCC2 (configuration not stated)	.	-1.1

# A portion of the library; rates above refer to the full screens.
